Screening results from PubChem BioAssay.
AmpC inh no det: inhibitors of E. coli AmpC beta-lactamase without detergent. P00811. AmpC nitrocefin hydrolysis, absorbance 480 nm, no detergent; potencies from a single point are estimates. Potency, µM (series often up to 28.7 µM), for inactives: at the top dose activity change, negative = inhibition. 1.8% of 71,000 active. AID 585; active = falling curve, for most hits resting on a single point; inconclusive = weak or doubtful change; inactive = flat or rising curve; note: % of control where 0% means no effect; about half of the hits show no inhibition at the top dose; a quarter of the inactives give rising signals
Target sequence (P00811 whole entry, looked up): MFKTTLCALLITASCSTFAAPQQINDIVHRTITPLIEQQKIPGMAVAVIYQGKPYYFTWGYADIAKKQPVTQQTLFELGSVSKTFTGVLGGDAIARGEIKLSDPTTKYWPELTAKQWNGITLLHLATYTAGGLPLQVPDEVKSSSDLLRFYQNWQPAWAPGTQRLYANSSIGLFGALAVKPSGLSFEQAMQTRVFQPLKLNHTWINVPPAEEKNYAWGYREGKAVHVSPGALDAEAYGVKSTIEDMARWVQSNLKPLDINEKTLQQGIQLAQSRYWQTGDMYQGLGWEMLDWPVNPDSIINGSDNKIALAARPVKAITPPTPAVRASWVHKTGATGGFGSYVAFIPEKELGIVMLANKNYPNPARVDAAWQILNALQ
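AmpC, 20 mM phosphate pH 7.0; 15 min cpd preinc, RT; start with nitrocefin (800 uM stock); A480 kinetic read, 20 s intervals, 4 min. No-enzyme wells = negative control.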
The depositor's hits bear a star; ? = inconclusive; [ ] = remark or other dose. Potency is the fitted concentration of half-maximal effect.

Start of the listing, in advance (three entries):
| SMILES | AmpC inh no det |
| --- | --- |
| COc1cc(C2C(C#N)=C(N)OC3=C2C(=O)CC(C)(C)C3)ccc1OC(=O)N1CCOCC1 (stereo not drawn) | 58% |
| CN1CCN(c2ncc3ncc(=O)n(C4CC4)c3n2)CC1 | -4% |
| COC(=O)C1=C(C)NC(=O)C1(Nc1ccc(Cl)cn1)C(F)(F)F (stereo not drawn) | -14% |

The list itself, from the first entry:
| SMILES | AmpC inh no det |
| --- | --- |
| COc1cc(C2C(C#N)=C(N)OC3=C2C(=O)CC(C)(C)C3)ccc1OC(=O)N1CCOCC1 (stereo not drawn) | 58% |
| CN1CCN(c2ncc3ncc(=O)n(C4CC4)c3n2)CC1 | -4% |
| COC(=O)C1=C(C)NC(=O)C1(Nc1ccc(Cl)cn1)C(F)(F)F (stereo not drawn) | -14% |
| N#Cc1cccc(NC(=O)N2CC3(CCN(C(=O)c4cccc(F)c4)CC3)C2)c1 | 28% |
| CSc1ccccc1NC(=O)c1c(C)noc1C | 134% |
| COc1cc(C(C)=O)ccc1OC(=O)C(C)N1C(=O)c2ccccc2C1=O (stereo not drawn) | 89% |
| O=C(c1cnn2c(C(F)F)cc(C3CC3)nc12)N1CCOCC1 | -1% |
| COc1nc(Nc2nc3ccccc3c(=O)[nH]2)nc2ccc(C)cc12 | 15% |
| CN1CCN(c2ncc3nc(-c4cc(F)cc(F)c4)c(=O)n(C)c3n2)CC1 | 23% |
| Cc1ccc(S(=O)(=O)N(C)CC(=O)N2CCCc3ccccc32)cc1 | 28% |
| CCCCNC(=O)CSc1nnc(NC(C)=O)s1 | -5% |
| C=CCSc1[nH]c(=O)cc(C)c1C(N)=O | 0% |
| Cc1csc2ncc(C(=O)Nc3cccc(C(F)(F)F)c3)c(=O)n12 | -1% |
| C/C(N)=C(/C#N)C(=O)CSc1nnc(Nc2cccc(C)c2C)s1 | -16% |
| C=CCn1c(SCC(=O)Nc2ccc(C(=O)OCC)cc2)nnc1-c1cccs1 | 15% |
| CCS(=O)(=O)/N=C(\N)c1ccccc1 | -3% |
| CN(C)C(=O)CSc1nnc2sc3ccccc3n12 | -3% |
| O=C(Nc1ccc(S(=O)(=O)NC2CCCCC2)cc1)c1ccc(Br)o1 | -19% |
| Cc1nn(-c2cc(N3CCOCC3)ccc2N)c(=O)c2ccccc12 | 8% |
| COC(=O)c1ccc(Cn2cnc3c(cnn3-c3ccc(Cl)cc3)c2=O)o1 | 25% |

Reformatted: 4 of the compounds above.
molecule: COc1nc(Nc2nc3ccccc3c(=O)[nH]2)nc2ccc(C)cc12
- AmpC inh no det = 15%
molecule: CN1CCN(c2ncc3nc(-c4cc(F)cc(F)c4)c(=O)n(C)c3n2)CC1
- AmpC inh no det = 23%
molecule: Cc1ccc(S(=O)(=O)N(C)CC(=O)N2CCCc3ccccc32)cc1
- AmpC inh no det = 28%
molecule: CCCCNC(=O)CSc1nnc(NC(C)=O)s1
- AmpC inh no det = -5%

Next part.
| SMILES | AmpC inh no det |
| --- | --- |
| Cn1c2ccccc2c2ncn(Cc3ccco3)c(=O)c21 | 4% |
| CC1COC2C(O1)N(S(C)(=O)=O)CCN2S(C)(=O)=O (stereo not drawn) | -1% |
| CCOc1ccc(C(c2nnnn2Cc2ccccc2)N2CCN(C(=O)c3ccco3)CC2)cc1 (stereo not drawn) | 127% |
| Cc1ccccc1CS(=O)(=O)CCC(=O)NCCN1CCN(c2cccc(Cl)c2)CC1 | 125% |
| c1ccc(OCCOc2ncnc3ccccc23)cc1 | 0% |
| CCOC(=O)N(c1ccccc1)P1(=S)OCCO1 | -1% |
| CC1(C)C(=O)NCCN1C(=O)CSc1nccc(-c2ccc(Br)cc2)n1 | 79% |
| CCOC(=O)N1CCN(C(=O)Cc2ccc(C)cc2)CC1 | 13% |
| O=C(NCCSCc1ccccc1)c1cc(S(=O)(=O)N2CCOCC2)ccc1F | 41% |
| COc1ccc(C(C)(C)C)cc1NC(=O)C1CC=CCC1C(=O)O (stereo not drawn) | 2% |
| O=S(=O)(Nc1ccc(N2CCCCC2)cc1)c1cccs1 | -3% |
| Cc1ccc(C2/C(=C(\O)c3c(C)nc4ccccn34)C(=O)C(=O)N2CCCN2CCOCC2)o1 (stereo not drawn) | 2% |
| CCOC(=O)CSc1nnc(NC(=O)c2cccc(S(=O)(=O)N3CCCCC3)c2)s1 | -22% |
| N#CCc1nc(CSc2nc3ccccc3s2)cs1 | ? |
| Cc1cccc(CNc2ncncc2-c2ccccc2C(F)(F)F)c1 | 37% |
| CCCn1c(SCC(=O)Nc2c(C)cccc2C)nnc1C(C)C | 9% |
| CCOC(=O)Cn1c(=O)oc2cc(S(=O)(=O)N3CCCc4ccccc43)ccc21 | 40% |
| CC(=O)c1c(C)[nH]c(C(=O)N2CCc3ccccc32)c1C | 10% |
| CC(C)C[C@H](NC(=O)OC(C)(C)C)c1nnc(SCc2cccc(F)c2)o1 | 13% |
| COCCN1C(=O)c2ccc(C(=O)Nc3nccs3)cc2C1=O | -11% |
| OC(c1ccccn1)c1c[nH]c2ccccc12 (stereo not drawn) | -5% |
| COc1ccc(C2/C(=C(\O)c3ccc(OC)c(Cl)c3)C(=O)C(=O)N2CCN(C)C)cc1 (stereo not drawn) | 2% |
| CN1CCN(c2ccc(C(=O)c3ccc(F)cc3)cc2)CC1 | 31% |
| O=S(=O)(NCCOC12CC3CC(CC(C3)C1)C2)c1cccc2nsnc12 | 19% |
| COC(=O)/C=c1/sc2n(c1=O)CCN=2 | -1% |
| CCCCNC(=O)C(c1ccc(OCC(=O)OC)c(C(=O)OC)c1)N(CCOC)C(=O)CCCCCN1C(=O)NC(c2ccc(-c3ccccc3)cc2)C(C(=O)OCc2ccccc2)=C1C (stereo not drawn) | 89% |
| NC(=O)C[C@H](NC(=O)Cc1ccc(O)cc1O)C(=O)O | 10% |
| Cc1cc(C)nc(/N=C2\NC(=O)CC(C(=O)O)N2c2ccc(Cl)cc2)n1 (stereo not drawn) | -2% |
| Cc1cc(C(=O)CSc2n[nH]c(N)n2)c(C)n1-c1cccc(F)c1 | 3% |
| CC1(C)N=C(N)N=C(N)N1c1cccc(C(=O)Nc2ccc(S(=O)(=O)F)cc2)c1 | 3%[5.75 µM] |
| NC(N)=N[C@H](CC(=O)O)c1ccccc1 | -5%[5.75 µM] |
| COc1cc2[nH]c(=S)n(C3CCCC3)c(=O)c2cc1OC | 11% |
| O=C1O[C@H](CN2CCOCC2)CN1/N=C\c1ccc([N+](=O)[O-])o1 | -7%[12.8 µM] |
| CN1CCN(c2ccc(C(N)=O)cc2N)CC1 | -3% |
| Cc1ccc(C)c(N2CCN(S(=O)(=O)c3c(C)noc3/C=C/N(C)C)CC2)c1 | 47% |
| COc1ccc(NC(=O)CN2CCC3(O)CCCCC3C2c2cc(OC)ccc2OC)cc1 (stereo not drawn) | 83% |
| Cn1cccc1C(=O)N1CCC2(CC1)CCN(c1ccncc1)CC2 | 6% |
| Cc1nn(-c2ccc3nnc(Br)n3n2)c(C)c1Br | 51% |
| CC1=C2[C@@H]([C@H](C)CC[C@H]2/C=C(\C)C(=O)O)[C@H](O)C1 | -5% |
| CS(=O)(=O)N1CCC2(CCCN(Cc3ccccc3)C2)CC1 | 0% |
| N#Cc1cccc(-c2nc3cnc(N4CCOCC4)nc3n(C[C@H]3CCCO3)c2=O)c1 | 9% |
| CSc1cccc(NC(=O)C2CCCN(S(=O)(=O)c3cnc[nH]3)C2)c1 (stereo not drawn) | -2% |
| Clc1ccc(C2CC(c3cccs3)n3ncnc3N2)cc1Cl (stereo not drawn) | 97% |
| CC(C)Oc1nc(-c2ccccc2O)nc2ccccc12 | -10% |
| O=S(=O)(c1ccccc1)c1nc(-c2cccs2)oc1NCCCn1ccnc1 | 26% |
| CC(=O)c1c(C)nn(C(=O)N2CCOCC2)c1C | -7% |
| Cc1ccccc1-n1c(=O)cc(NCc2ccc3c(c2)OCO3)[nH]c1=O | -5% |
| CCOC(=O)CN1CC23C=CC(O2)C(C(=O)Nc2ccc(F)cc2)C3C1=O (stereo not drawn) | -11% |
| COc1ccccc1CNC(=O)c1cc2c(s1)CS(=O)(=O)C2 | -12% |
| COC(=O)c1ccc(C(c2c(N)n(CC(C)C)c(=O)[nH]c2=O)N2CCN(c3ccccc3)CC2)cc1 (stereo not drawn) | 90% |
| O=C(NCCCN1CCc2ccccc2C1)C1CCN(S(=O)(=O)N2CCCC2)CC1 | -2% |
| Cc1nc2ccc(S(=O)(=O)NCC(=O)O)cc2s1 | -4% |
| Cc1nc(C)c2c(c1C(F)(F)F)-c1ccccc1C2(F)F | -5% |
| O=C(CSCC(=O)NC1CC1)Nc1ccccc1 | -7% |
| O=C(NCCc1ccncc1)c1ccccc1F | 11% |
| Cc1ccc(C(=O)CSc2nnc(COc3cccc4cccnc34)o2)cc1 | 25% |
| CCn1nnnc1SCC(=O)N1c2ccccc2CCc2ccccc21 | 58% |
| CCOC(=O)Cn1c(CN2CCOCC2)nc2c1c(=O)[nH]c(=O)n2C | 2% |
| O=C1CC(N2CCN(c3ccccc3Cl)CC2)C(=O)N1c1ccc(F)cc1 (stereo not drawn) | 82% |
| CCn1c(=O)c2c(nc(SCC(=O)NCC3CCCO3)n2C)n(C)c1=O (stereo not drawn) | 4% |

(continued)
| SMILES | AmpC inh no det |
| --- | --- |
| CCOc1ccc(C(=O)Nc2c3c(nn2-c2ccc(C)cc2)CS(=O)C3)cc1OCC (stereo not drawn) | 42% |
| CCOC(=O)C1CCN(S(=O)(=O)c2c(C)[nH]c(=O)[nH]c2=O)CC1 | 19% |
| O=C(O)C1CCCCC1C(=O)NC1CCCCC1 (stereo not drawn) | -5% |
| C[C@H](NC(C)(C)C)C(=O)c1cccc(Cl)c1 | -4%[12.8 µM] |
| Cn1c(NC(=O)c2ccc(F)c(F)c2)cc(=O)n(C)c1=O | 11% |
| Cc1cccc2cc(CN(CC3CCCO3)S(=O)(=O)c3ccccc3)c3nnnn3c12 (stereo not drawn) | 22% |
| COc1cccc(C2C(C(=O)c3sc(C)nc3C)=C(O)C(=O)N2CCN(C)C)c1OC (stereo not drawn) | -3% |
| CCOC(=O)Cn1nc(-c2ccccc2)ccc1=O | 11% |
| COc1ccc(S(=O)(=O)N2CCC(C(=O)Nc3cccc(C(C)=O)c3)CC2)cc1C | 26% |
| CCn1ncc2c(OCc3ccc(C#N)cc3)cc(C)nc21 | 45% |
| CCc1ccc2[nH]c(=O)c(C(c3nnnn3Cc3ccccc3)N3CCOCC3)cc2c1 (stereo not drawn) | 53% |
| Cc1cccc(-n2c(CNC(=O)c3ccc(S(=O)(=O)N4CCCC4)cc3)n[nH]c2=S)c1 | 13% |
| O=C(CN1CCOCC1)Nc1cc(Cl)ccc1Cl | 20% |
| CCCSc1nc2c(cnn2-c2ccc(F)cc2)c(=O)[nH]1 | 4% |
| Cc1cc(C)nc(SCC(=O)N2CCC(C(N)=O)CC2)n1 | -8% |
| CCOc1ccccc1N1CC(C(=O)Nc2ccccc2N2CCOCC2)CC1=O (stereo not drawn) | 76% |
| Cc1ccc(CN2C(=O)CCC2C(=O)NCCCN2CCOCC2)cc1 (stereo not drawn) | -9% |
| Cc1noc(C)c1CSc1nnnn1-c1ccc(Cl)cc1 | 11% |
| CCn1cc(C(=O)Nn2cnnc2)c(=O)c2ccc(C)nc21 | -6% |
| O=C(CSc1n[nH]c(-c2ccco2)n1)Nc1sc2c(c1C(=O)Nc1ccccc1)CCCC2 | -24% |
| CCC(C)N(C(=O)Cn1nnc2ccccc21)C(C(=O)NCc1ccco1)c1cccc(OC)c1 (stereo not drawn) | 53% |
| CCCN1CC=C2C(C#N)=C(N)C(C#N)(C#N)C(c3cc(OC)ccc3OC)C2C1 (stereo not drawn) | 44% |
| Nc1sc2c(c1C(=O)NC1CCS(=O)(=O)C1)CCCC2 (stereo not drawn) | -6% |
| O=c1cc(Nc2ccc3c(c2)OCCO3)[nH]c(=O)n1-c1ccc(Cl)cc1 | -9% |
| CC(C)N(Cc1nc(-c2ccccc2)no1)S(=O)(=O)c1ccccc1 | 4µM*[single pt active] |
| CCCC(CCC)n1[nH]c(=O)c2c(C)cc(C)nc21 | 4% |
| Cc1ccc(-n2c(Cc3cccn3C)nnc2SCC(=O)Nc2nnc(C)s2)cc1 | 76% |
| CCOC(=O)Nc1ccc2c(c1)N(C(=O)OC)c1ccccc1CC2 | 41% |
| CCOC(=O)C1=C(C)N=C2SCCC(=O)N2C1c1ccc(C(=O)OC)cc1 (stereo not drawn) | 60% |
| CC1(C)CC(=O)C2=C(C1)Oc1ncn(CCCO)c(=N)c1C2c1ccccc1 (stereo not drawn) | 5% |
| CCS(=O)(=O)N1CCC(C(=O)NCCCN2CCN(c3ccccc3F)CC2)CC1 | 11% |
| Cc1ccc2nc(-c3ccccc3)cc(C(=O)O)c2c1 | -8% |
| COCCOC(=O)c1c(C)oc2ccc(NS(=O)(=O)c3ccc(F)cc3)cc12 | 4% |
| CCN(CCCNC(=O)CCNC(=O)Cn1cnc2ccccc2c1=O)c1ccccc1 | 84% |
| CC(C)N1CC(O)=C(c2nc3ccccc3[nH]2)C1=N | -7% |
| Cc1sc2nc(C(C)C)nc(SCC(=O)N3CCN(C(=O)c4ccco4)CC3)c2c1C | 141% |
| c1ccc(CN2CCC3(CCc4ccccc43)CC2)cc1 | 27% |
| Cc1ccc(Cn2nnc3c(=O)n(CC(=O)NCc4ccc5c(c4)OCO5)cnc32)cc1 | 1% |
| COc1cc2c(cc1OC)CN(S(C)(=O)=O)CC2 | 0% |
| CCN1CCN(C(=O)c2ccccc2N(C)S(=O)(=O)c2ccc(C)cc2)CC1 | 16% |
| CCC(C)Sc1nnc(-c2c[nH]c3ccccc23)n1CCOC (stereo not drawn) | 5% |
| CCn1c(=O)cc(SCC(=O)N2CCOCC2)c2ccccc21 | 14% |

Some of the compounds tested; the hit share may differ from the screen's.
